# Methyltransferases = Primary Screen for Target Class Profiling of Small Molecule Inhibitors of Methyltransferases; purified enzyme, MTase-Glo SAH luminescence; stronger effect = lower value; calls only at 40 µM; 25,000 tested, 3.9% active; active = -50% or lower on at least one of six enzymes; inconclusive = the cases between; inactive = as a rule above -30% on all six;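 also: enzymes were COMT GAMT GNMT HNMT NNMT and PNMT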
#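 Each enzyme was reacted with SAM and its substrate, with compounds tested once at 40 uM; SAH formed was read by MTase-Glo luminescence.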
# Calls only; i = inactive; ? = inconclusive; + = active, no number; ! = not confirmed by another sample. % is scaled to controls: 0 for no effect and ±100 for the full control effect.
# A first look, 4 compounds:
structure | Methyltransferases
COc1ccc(CNC(=O)CCc2nnc3n(Cc4ccc(Cl)cc4)c(=O)c4ccccc4n23)cc1 | i
CC12CCC3c4ccc(O)cc4CCC3C1CCC2OC1OC(C(=O)O)C(O)C(O)C1O (stereo unspecified) | i
COC[C@H]1NC(=O)CC[C@H]1C(=O)NCCC1=CCCCC1 | i
CC1(C(=O)NC2CCCCC2)Cn2c(cc3occc32)C(=O)N1Cc1ccc(Cl)cc1 (stereo unspecified) | i

# The whole of this part (from the top)
structure | Methyltransferases
COc1ccc(CNC(=O)CCc2nnc3n(Cc4ccc(Cl)cc4)c(=O)c4ccccc4n23)cc1 | i
CC12CCC3c4ccc(O)cc4CCC3C1CCC2OC1OC(C(=O)O)C(O)C(O)C1O (stereo unspecified) | i
COC[C@H]1NC(=O)CC[C@H]1C(=O)NCCC1=CCCCC1 | i
CC1(C(=O)NC2CCCCC2)Cn2c(cc3occc32)C(=O)N1Cc1ccc(Cl)cc1 (stereo unspecified) | i
CCN1C(=O)c2cc(C(=O)NCc3ccc(OC)c(OC)c3)nn2CC1(C)C(=O)NC1CCCC1 (stereo unspecified) | i
Cc1ccc(Cn2c(=O)c3ccccc3n3c(CCC(=O)N4CCN(c5cccc(Cl)c5)CC4)nnc23)cc1 | i
CCCNC(=O)c1cc2n(n1)CC(C)(C(=O)NC1CCCCC1)N(C)C2=O (stereo unspecified) | i
CN1Cc2sccc2C(c2ccc(O)c(O)c2)C1 (stereo unspecified) | ?
CCCN1C(=O)c2c(C(=O)NCc3cccc(C)c3)ncn2CC1(C)C(=O)NC1CCCC1 (stereo unspecified) | i
Cn1cnc(S(=O)(=O)NCCc2ccc(Cl)cc2)c1 | i

# No new results follow: entries from further up.
structure | Methyltransferases
COc1ccc(CNC(=O)CCc2nnc3n(Cc4ccc(Cl)cc4)c(=O)c4ccccc4n23)cc1 | i
CC12CCC3c4ccc(O)cc4CCC3C1CCC2OC1OC(C(=O)O)C(O)C(O)C1O (stereo unspecified) | i

# Next records follow.
structure | Methyltransferases
CC(C)CCn1c(=O)c2ccccc2n2c(CCC(=O)NCCc3ccc(Cl)cc3)nnc12 | i
O=C(CCc1c[nH]c2ccccc12)NC1CCc2n[nH]c(=O)n2CC1 (stereo unspecified) | i
C[C@@H]1O[C@@H](O[C@H]2[C@H](O[C@H]3[C@H](O[C@H]4CC[C@@]5(C=O)C(CC[C@]6(C)C5CC=C5C7CC(C)(C)C[C@@H](O)[C@]7(C)CC[C@]56C)C4(C)C)O[C@H](C(=O)O)[C@@H](O)[C@@H]3O)OC[C@@H](O)[C@@H]2O)[C@H](O)[C@H](O)[C@H]1O (stereo partly specified) | i
N#Cc1cccc(CN2CCCC(CNS(=O)(=O)Cc3ccccc3)C2)c1 (stereo unspecified) | i
N#Cc1c2nc3ccccc3nc2n2ccc(NC(=O)c3cccs3)cc12 | ?
COc1cc(/C=C/c2cc(O)cc(O[C@@H]3O[C@H](CO)[C@@H](O)[C@H](O)[C@H]3O)c2)ccc1O | +
Cc1ccc(N(CC(=O)N[C@H]2C[C@@H]3OCC[C@H]23)S(C)(=O)=O)cc1 | i
COC(=O)c1cc2n(n1)CC(C)(C(=O)NC1CCCCC1)N(c1ccc(C)cc1C)C2=O (stereo unspecified) | i
CN(C)CCC(=O)N1Cc2ccccc2CC2(CCCN2Cc2cccnc2)C1 (stereo unspecified) | i
COCC1CN(S(=O)(=O)Cc2cccc(F)c2)CC12CCNCC2 (stereo unspecified) | i
COc1ccccc1CNC(=O)C1(C)Cn2cnc(C(=O)NCc3cccnc3)c2C(=O)N1C1CC1 (stereo unspecified) | i
CCCn1c(=O)c2ccc(Cl)cc2n2c(=O)n(CC(=O)Nc3ccc4c(c3)OCCO4)nc12 | i
O=C(NCCc1nc2ccccc2s1)[C@H]1CNC[C@@H](C(=O)N2CCOCC2)C1 | i
Cc1ncc([N+](=O)[O-])n1C[C@H](O)CN1CCOCC1 | i
CCOC(=O)Cc1ccc(NC(=O)N2Cc3c(sc4c3CCCC4)-n3cccc3C2c2ccccc2)cc1 (stereo unspecified) | i
COCCNCc1ccc(-c2cc3nccc(Oc4ccc(NC(=S)NC(=O)Cc5ccc(F)cc5)cc4F)c3s2)nc1 | i
N[C@H]1CO[C@H]2[C@@H]1OC[C@@H]2n1cc(-c2ccccn2)nn1 | ?
Cc1ccc(NC(=O)N2CCn3c(C)ccc3C2C(C)C)cc1F (stereo unspecified) | i
CC(C)Cn1c(=O)c2ccccc2n2c(CCC(=O)NCCC3=CCCCC3)nnc12 | i
CCCn1c(=O)c2cc(Cl)ccc2n2c(=O)n(Cc3ccc(Cl)cc3)nc12 | i

# Two records picked at random from those above:
structure | Methyltransferases
CCOC(=O)Cc1ccc(NC(=O)N2Cc3c(sc4c3CCCC4)-n3cccc3C2c2ccccc2)cc1 (stereo unspecified) | i
O=C(NCCc1nc2ccccc2s1)[C@H]1CNC[C@@H](C(=O)N2CCOCC2)C1 | i

# (cont.)
structure | Methyltransferases
Cc1ccc(NC(=O)N2CCn3cccc3C2C(C)C)cc1F (stereo unspecified) | i
Cn1c(/C=C/C(=O)NO)ccc1/C=C/C(=O)c1cccc(F)c1 | ?
O=S(=O)(c1ccccc1)c1nnn2c1nc(NC1CCCCC1)c1cc(Cl)ccc12 | i
CCN(CC)CCCCCCNc1cc(OC)cc2c(C)ccnc12 | +
CCC(C)NC(=O)c1ccc2c(=O)n(CCC(C)C)c3nn(CC(=O)Nc4cccc(C)c4)c(=O)n3c2c1 (stereo unspecified) | i
C=C(C)C1CC[C@]2(C(=O)O)CC[C@]3(C(=O)O)[C@H](CCC4[C@@]5(C)CC[C@H](O)C(C)(C)C5CC[C@]43C)C12 (stereo partly specified) | i
CN1C(=O)CCCCC1C(=O)NCCN1CCCCC1 (stereo unspecified) | i
COc1ccccc1CNC(=O)C1c2c(n(C)c3ccccc23)SCC(=O)N1c1ccc(C)c(Cl)c1 (stereo unspecified) | i
COc1ccccc1NS(=O)(=O)c1ccc2c(c1)NC(=O)C(C)C(=O)N2 (stereo unspecified) | i
COc1ccc(NC(=O)CCc2nnc3n(Cc4ccccc4)c(=O)c4ccccc4n23)cc1 | i
CCCn1c(=O)c2cc(F)ccc2n2c(SCc3cccc(Cl)c3)nnc12 | i
COc1ccccc1CNC(=O)C1(C)Cn2c(cc3ccccc32)C(=O)N1Cc1ccc(C)cc1 (stereo unspecified) | i
COc1cc2c(cc1OC)CC(=O)N(CCCNC[C@H]1Cc3cc(OC)c(OC)cc31)CC2 | i
CC1=C(CCC(C)O[C@@H]2O[C@H](CO)[C@@H](O)[C@H](O)[C@H]2O)C(C)(C)CC(O)C1 (stereo partly specified) | i
CC(C)NC(=O)c1ccc2c(=O)n(C(C)C)c3nn(CC(=O)N(C)c4ccc(F)cc4)c(=O)n3c2c1 | i
CC(C)CCn1c(=O)c2ccc(C(=O)NC(C)C)cc2n2c(=O)n(CC(=O)Nc3cccc(F)c3)nc12 | i
O=C(CCc1nnc2n(Cc3ccccc3)c(=O)c3ccccc3n12)N1CCN(c2ncccn2)CC1 | i
CCOc1cc(C(=O)N2CCC(N3CCN(C)CC3)CC2)ccc1Nc1ncc2c(n1)N(C1CCCC1)c1ccccc1C(=O)N2C | i
CCOCCCN1C(=O)c2ccc(-c3ccccc3)n2CC1(C)C(=O)NC1CCCCCC1 (stereo unspecified) | i
CCc1noc([C@@H]2CC(F)(F)CN2C(=O)c2ccncc2F)n1 | i
COc1c(F)cccc1CN1CCOc2cc([S+](N)(=O)[O-])ccc2C1 | i
Cc1ccccc1-c1nc(Cn2ccnc2C(C)C)c(C)o1 | i
CC(C)Cn1c(=O)c2ccccc2n2c(=O)n(CC(=O)N3CCN(c4ccc(F)cc4)CC3)nc12 | i
COc1ccc(N2C(=O)c3ccc(-c4ccco4)n3CC2(C)C(=O)NC2CCCC2)cc1Cl (stereo unspecified) | i
CC(CCc1ccccc1)NC(=O)c1cc2n(n1)CC(C)(C(=O)NC1CCCC1)N(C)C2=O (stereo unspecified) | i
C=CCn1c(=O)c2ccc(C(=O)NCC(C)C)cc2n2c(=O)n(CC(=O)NC(C)CC)nc12 (stereo unspecified) | i
C[S+](=O)([O-])NC1CCCN(Cc2ccc(-c3cncnc3)cc2)C1 (stereo unspecified) | i
NC[C@H]1CCC[C@@H](CNC(=O)[C@@H](Cc2c[nH]c3ccccc23)NC(=O)N2CCC3(C=Cc4ccccc43)CC2)C1 | i
CCC(=O)N1CCCCCCNC(=O)[C@@H]2C[C@@H](C(=O)N3CCN(c4ccccn4)CC3)C[C@@H]21 | i
CCC(C)/C=C(C)/C=C/c1cc2c(cn1)C(=O)C(C)(OC(C)=O)C(O)=C2Cl (stereo unspecified) | i
COc1ccc(CCN2C(=O)c3cc4occc4n3CC2(C)C(=O)NC2CCC(C)CC2)cc1OC (stereo unspecified) | i
CSc1ccc(CNC(=O)c2cc3n(n2)CC(C)(C(=O)NCc2ccc(F)cc2)N(C)C3=O)cc1 (stereo unspecified) | i
CCOC(=O)c1ccc(N2C(=O)CSc3c(c4ccccc4n3C)C2C(=O)NCCC(C)C)cc1 (stereo unspecified) | i
Cc1cc(CS(=O)(=O)c2ccccc2)cc(OCc2ccc(CN3CCCC3CO)cc2)c1 (stereo unspecified) | i
COc1cc(C(O)C(=O)O)ccc1O (stereo unspecified) | i
COc1cc2c(cc1CN1CCC3(CCCNC3)C1)OCCCO2 (stereo unspecified) | i
COc1ccc2c(c1)c(CC(=O)O)c(C)n2Cc1ccc(Cl)cc1 | ?
CCOC(=O)c1cc2n(n1)CC(C)(C(=O)NC1CCCC1)N(c1ccc(C)cc1Cl)C2=O (stereo unspecified) | i
OC[C@H]1O[C@@H](OCCc2ccc(O)cc2)[C@H](O)[C@@H](O)[C@@H]1O | i
CCc1n[nH]c(CC2CCN(C(=O)C3CC3)CC2)n1 | i
O=S(=O)(c1ccc(F)cc1)c1nnn2c1nc(Nc1ccc(F)cc1)c1ccccc12 | i
CC(C)CCNC(=O)C1(C)Cn2nc(C(=O)NCCc3ccc(Cl)cc3)cc2C(=O)N1C (stereo unspecified) | i
CCN1C(=O)c2cc(C(=O)N3CCN(c4cc(C)ccc4C)CC3)nn2CC1(C)C(=O)NC1CCCC1 (stereo unspecified) | i
CC1CCN=C(N)S1 (stereo unspecified) | ?
CC1(C)CC[C@]2(C(=O)O)[C@H](O)C[C@]3(C)C(=CCC4[C@@]5(C)CC[C@H](O[C@@H]6O[C@H](CO[C@@H]7OC[C@H](O)[C@H](O)[C@H]7O[C@@H]7OC[C@@H](O)[C@H](O)[C@H]7O)[C@@H](O)[C@H](O)[C@H]6O[C@@H]6O[C@H](CO)[C@@H](O)[C@H](O)[C@H]6O)C(C)(C)C5CC[C@]43C)[C@@H]2C1 (stereo partly specified) | i
COCc1nc2nc(-c3ccccc3)c(-c3ccc(O)c(F)c3)cc2n1C | +
CN(C(=O)c1cccc2ccccc12)C1CCCN(C2Cc3ccccc3C2)C1 (stereo unspecified) | i
COc1ccc(CNC(=O)C[C@@H]2CCNC[C@@H]2Cc2cc(C(C)(C)C)on2)cc1 | i
Cc1cnn(-c2cc(N3CCC(n4cc(C5CCCC5)nn4)CC3)ncn2)c1 | i
CC(C)C[C@H](NC(=O)[C@@H](O)[C@H](N)Cc1ccccc1)C(=O)O | i

# Carrying on.
structure | Methyltransferases
CNC(=O)[C@@H]1CN(C(=O)CCc2ccc(OC)c(OC)c2)C[C@H]1CO | i
CO[C@H]1C[C@@H]2CC[C@@H](C)[C@@](O)(O2)C(=O)C(=O)N2CCCC[C@H]2C(=O)O[C@H]([C@H](C)C[C@@H]2CC[C@@H](OC(=O)C(C)(CO)CO)[C@H](OC)C2)CC(=O)[C@H](C)/C=C(\C)[C@@H](O)[C@@H](OC)C(=O)[C@H](C)C[C@H](C)/C=C/C=C/C=C/1C | i
CN1CCN(Cc2ccc(-c3cnc4c(OCc5ccccc5)nccn34)cc2)CC1 | ?
COc1ccc(CCN2CCCC(CN(C)Cc3cnc[nH]3)C2)cc1 (stereo unspecified) | ?
O=C(c1cc(-n2cccn2)ccc1Cl)N1CCn2nc(CO)cc2C1 | i
Cc1cc2c(cc1S(=O)(=O)Nc1ccc(F)c(F)c1)n(C)c(=O)n2C | i
COCCNc1nc2c(S(=O)(=O)c3c(C)cc(C)cc3C)nnn2c2ccccc12 | i
CCc1ccc2c(-c3cccc(Cl)c3)nc(=O)n(CC)c2n1 | i
COc1cc(CC(COC2OC(CO)C(O)C(O)C2O)c2cc(/C=C/CO)cc(OC)c2O)ccc1O (stereo unspecified) | i
CCCn1c(=O)c2ccc(C(=O)NCC(C)C)cc2n2c(=O)n(Cc3ccc(C)cc3)nc12 | i
COc1cccc(CC(=O)N[C@@H]2C[C@H](Cn3cc(-c4cccnc4)nn3)[C@@H](O)[C@H]2O)c1 | i
CCOC(=O)N1c2ccc(C(F)(F)F)cc2C(N(Cc2cc(C(F)(F)F)cc(C(F)(F)F)c2)C(=O)OC)CC1CC (stereo unspecified) | ?
CC1CCCCN1CCCN1C(=O)c2ccc(-c3ccco3)n2CC1(C)C(=O)NC1CCCCCC1 (stereo unspecified) | i
CN1CCC[C@@H]1Cc1c[nH]c2ccc(CCS(=O)(=O)c3ccccc3)cc12 | +!
CCc1ccccc1NC(=O)c1ncn2c1C(=O)N(C1CC1)C(C)(C(=O)NCc1ccc(OC)cc1)C2 (stereo unspecified) | i
CCCn1c(=O)c2ccc(Cl)cc2n2c(SCC(=O)Nc3ccccc3F)nnc12 | i
CN1C(=O)c2cc(C(=O)N3CCN(Cc4ccccc4)CC3)nn2CC1(C)C(=O)NCc1ccccc1 (stereo unspecified) | i
CC(C)CCn1c(=O)c2ccccc2n2c(=O)n(CC(=O)NCc3ccccc3)nc12 | i
CC(C)Oc1ccc(C2(C(=O)N3C[C@@H](C)[C@](O)(C4CC4)C3)CCCC2)cc1 | i

# The list is partial; count on the stated rates, not on these rows.
